Screening results as filed in PubChem.
E coli growth = E. coli growth inhibition | 330,000 tested, 0.21% active | Escherichia coli growth, OD600, 23 h; stronger effect = lower value | OD600 absorbance (no concentration beside the values) | AID 1053175;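 active means OD600 absorbance below the run mean of sample wells minus 3.6 SD, in any replicate, cut at about 0.56 in these data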;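 further: stock transfer was 300 nL into about 60 µL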
HNF4A DNA FP = change in binding of human HNF4 alpha to DNA | P41235 | HNF4a-FITC DNA binding, fluorescence polarization, 1 h | activity change, % at 10 µM | 360,000 tested, 0.3% active; in the data active means activity change above about 30%, passing the limit was not always enough;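 further: controls were the assay level and a saturating level of protein; the project sought stronger binding though the title names inhibitors; some compounds called inactive have numbers as strong as hits; positive values seem to mean higher polarization but the record does not say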
Vif TR-FRET = inhibitors of Vif binding to APOBEC3G peptide, primary screen, biochemical, TR-FRET, GST-Vif 1-94, biotin-A3G peptide, dose response retest (AID 1117319); TR-FRET GST-Vif / biotin-A3G peptide binding; higher % means a stronger effect; test concentration not given here; strong numbers were not always called active; inhibition, %, or IC50 in µM where a hit was titrated; 260,000 tested, 0.57% active;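 active means above the screen mean plus three standard deviations and confirmed in dose response; inconclusive means results disagree or hit not tested in dose response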;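 further: Vif residues 1-94 fused to GST binding biotinylated APOBEC3G peptide 110-148; 0% = full assay without inhibitor and 100% = GST in place of GST-Vif; retest series ran down from 100 µM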
UCH37 DUB inh = inhibitors of human deubiquitinating enzyme UCH37 | 330,000 tested, 0.33% active | Q9Y5K5 | AID 588478 | inhibition, % (no concentration beside the values) | purified proteasome/UCH37, Ub-AMC cleavage fluorescence;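 active means mean of two replicates above 20%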;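 further: 0% = compound-free wells with enzyme and 100% = wells lacking proteasome; stock transfer was 100 nL into about 20 µL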
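Material: Human UCH37 enzyme supplied as purified proteasome complex | Schedule: 30 min preincubation with enzyme, 25 min cleavage at room temperature | Detection: AMC fluorescence 355/460 nm | Measure: % inhibition of Ub-AMC cleavage fluorescence | Controls: Wells without proteasome as full block, compound-free enzyme plus substrate as uninhibited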
Bfl-1 A1 inh = inhibitors of the anti-apoptotic protein A1, read as caspase activation; MEF A1-2A-BIM cells, Caspase-Glo 3/7 luminescence, 3 h; percent of clofoctol response, vehicle zero; caspase activation, % (no concentration beside the values); 330,000 tested, 0.066% active; AID 2462;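 active means over half of replicate activation scores above 10%, or exactly half above 10 with the replicate mean above 10; inconclusive means replicate mean below 10 yet half the replicates above 10; inactive means over half of replicates below 10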;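 further: wells of about 30 µL received 50 nL stock; many hits fall short of the cut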
LANA-H2B inh = blocks KSHV LANA binding to histone H2A/H2B | inhibition, % (no concentration beside the values) | cell-free LANA-H2A/H2B peptide, fluorescence polarization | AID 2629 | 320,000 tested, 0.6% active; in the data active means inhibition mostly above about 10%, no sharp cut-off; inactive means mostly below about 6.7%;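 further: stock transfer was 7.5 nL into about 10 µL; 0% = median of vehicle wells and 100% = median of positive control wells; one replicate is shown; the record names a cut of 25% in any replicate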
Target sequence (Q9QR71 whole entry, looked up): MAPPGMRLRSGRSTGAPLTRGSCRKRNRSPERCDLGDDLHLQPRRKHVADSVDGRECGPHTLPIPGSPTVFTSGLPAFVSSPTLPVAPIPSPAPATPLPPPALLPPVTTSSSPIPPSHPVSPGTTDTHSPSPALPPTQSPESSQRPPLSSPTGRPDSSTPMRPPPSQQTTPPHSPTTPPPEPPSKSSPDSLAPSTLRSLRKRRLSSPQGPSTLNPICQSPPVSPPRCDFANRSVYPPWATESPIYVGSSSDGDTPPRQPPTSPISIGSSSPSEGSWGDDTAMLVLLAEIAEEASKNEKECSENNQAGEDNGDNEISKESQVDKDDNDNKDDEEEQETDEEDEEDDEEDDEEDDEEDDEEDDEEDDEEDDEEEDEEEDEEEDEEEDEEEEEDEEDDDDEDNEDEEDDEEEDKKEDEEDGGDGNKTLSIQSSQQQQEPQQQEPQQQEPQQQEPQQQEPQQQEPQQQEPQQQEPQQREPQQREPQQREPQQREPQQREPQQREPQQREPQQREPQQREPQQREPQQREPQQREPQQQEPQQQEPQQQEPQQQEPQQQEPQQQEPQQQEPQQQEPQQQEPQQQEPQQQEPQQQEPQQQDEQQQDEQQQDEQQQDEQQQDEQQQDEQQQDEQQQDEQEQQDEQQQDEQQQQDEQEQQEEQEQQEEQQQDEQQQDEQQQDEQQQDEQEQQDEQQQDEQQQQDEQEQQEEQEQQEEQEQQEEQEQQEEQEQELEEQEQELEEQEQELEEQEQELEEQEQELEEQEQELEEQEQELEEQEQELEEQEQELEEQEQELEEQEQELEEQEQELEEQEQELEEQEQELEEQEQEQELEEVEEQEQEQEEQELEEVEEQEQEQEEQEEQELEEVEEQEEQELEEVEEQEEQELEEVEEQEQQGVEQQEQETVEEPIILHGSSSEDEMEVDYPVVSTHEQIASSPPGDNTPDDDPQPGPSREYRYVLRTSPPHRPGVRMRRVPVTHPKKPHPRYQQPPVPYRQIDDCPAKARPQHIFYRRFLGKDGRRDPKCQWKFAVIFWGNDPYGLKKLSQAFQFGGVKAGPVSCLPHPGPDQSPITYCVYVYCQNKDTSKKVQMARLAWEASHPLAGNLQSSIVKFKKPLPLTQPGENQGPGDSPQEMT
Beta2AR agonist = activates human beta-2 adrenergic receptor causing internalization. response, % (test concentration not listed). AID 504454. Am2.2-beta2AR cells, FAP receptor internalization, flow cytometry; reference of the scale not given here. 340,000 tested, 0.43% active;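 active means response above a set limit, near 3 SD of response in nonfluorescent compounds, cut at about 42% in these data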;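 further: stock transfer was 100 nL into about 11 µL; a reference agonist was the positive control; negative values mostly stem from fluorescent compounds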
* = called active by the depositor; i = inactive; u = inconclusive; x = not tested or not shown. An unsorted share of the library; about 2.1% have a hit in one of these screens.

SMILES	E coli growth	HNF4A DNA FP	Vif TR-FRET	UCH37 DUB inh	Bfl-1 A1 inh	LANA-H2B inh	Beta2AR agonist
Cc1ccc(C(=O)OC(C)C(=O)NC(C)CCc2ccccc2)o1 (stereo not drawn)	0.66	-0.5	4%	0.2	1.0	-1.9	-8
CCN1CCCC1CNC(=O)C1c2ccccc2C(=O)N(CCOC)C1c1ccc(F)cc1 (stereo not drawn)	0.71	-1.2	u	6.3	0.4	-1.7	-4
Cn1c(CC(=O)Nc2ccccc2F)nnc1SCC(=O)N1CCOCC1	0.7	1.1	4%	-2.4	0.0	1.7	-1
O=C(N/N=C/c1cc(Br)ccc1OC(=O)c1ccc(Br)cc1)c1ccncc1	x	3.1	x	x	-0.2	-1.6	5
O=C(CSc1nnc(C2CC2)n1-c1ccccc1)NC1CCS(=O)(=O)C1 (stereo not drawn)	0.67	0.4	x	2.4	0.5	-11	-3
CC(NC(=O)c1ccc2c(c1)OCO2)c1ccccc1 (stereo not drawn)	0.7	0.4	x	0.7	0.5	-0.6	-4
O=C(CCNc1cc(Cl)cc(Cl)c1)c1cccs1	0.65	3.6	-4%	-1.3	-0.1	0.2	-4
NC[C@@H]1O[C@H](O[C@H]2[C@@H](O)[C@H](O[C@@H]3[C@@H](O)[C@H](N)C[C@H](N)[C@H]3O[C@H]3O[C@H](CO)[C@@H](O)[C@H](O)[C@H]3N)O[C@@H]2CO)[C@H](N)[C@@H](O)[C@@H]1O	x	x	-10%	x	0.0	-2.6	x
O=C(Cn1ccc(NC(=O)OCc2ccccc2)nc1=O)NCCCN1CCCC1=O	0.69	2.6	x	2.3	0.8	5.5	6
COc1ccc(CNc2ccccc2)cc1Br	0.66	4.9	8%	2.3	0.2	1.6	8
CCOc1cccc(C2c3c(oc4ccccc4c3=O)C(=O)N2c2ccccn2)c1 (stereo not drawn)	0.74	x	x	3.2	-0.3	-0.4	x
CN(CC1CCCN(CCc2ccc(F)cc2)C1)C(=O)CCC(N)=O (stereo not drawn)	0.64	4.5	x	1.8	0.2	1.9	2
O=C(c1ccccc1F)N(Cc1ccc2c(c1)OCO2)Cc1cc2cc3c(cc2n2nnnc12)OCO3	0.68	-1.1	-7%	0.4	-0.1	-5.8	3
C#CCOCCOCCOCCNc1nc(N2CCN(C(=O)[C@H]([C@@H](C)CC)n3cc([C@@H](N)CO)nn3)CC2)nc(N2CCN(C(=O)[C@H](Cc3ccc(O)cc3)n3cc([C@@H](N)C(C)CC)nn3)CC2)n1 (stereo partly drawn)	x	-1.4	-13%	3.9	1.2	-1.6	6
O=C(Cc1ccccc1)NC(NCCCN1CCOCC1)(C(F)(F)F)C(F)(F)F	0.7	-3.3	-2%	3.3	-0.4	1.3	14
CCc1cccc(C)c1NC(=O)CCCSc1nc2ccccc2s1	0.72	-0.3	-13%	1.8	0.1	-0.6	-21
Cn1c2ccccc2c2n[nH]c(=S)nc21	0.63	-1.6	x	7.5	-0.2	1.6	1
COc1c(OC)c(O)c2c(=O)c(O)c(-c3ccccc3)oc2c1OC	0.65	1.1	x	0.2	-1.0	-4.5	5
CCC1=NN(C(=O)CCc2ccccc2O)C(O)(C(F)(F)F)C1 (stereo not drawn)	0.73	2.1	3%	3.6	0.7	-3.3	1
O=C(C1CCCCC1)N1CCC(c2nc3ccccc3[nH]2)CC1	0.74	-2.0	6%	3.5	-0.8	1.4	-4
CC(C)c1ccccc1N1CC(C(=O)O)CC1=O (stereo not drawn)	0.67	6.8	64%	0.4	-0.7	1.0	17
CCS(=O)(=O)c1ccc(Sc2nncn2C)c([N+](=O)[O-])c1	0.71	2.6	x	5.4	0.1	-3.8	1
Cc1cc(C)c(S(=O)(=O)NCC2CCC(C(=O)NCCCN3CCOCC3)CC2)c(C)c1 (stereo not drawn)	0.78	0.7	4%	3.5	x	x	8
CC(OC(=O)C1CCN(S(=O)(=O)c2ccc(F)cc2)CC1)C(=O)NC1CCCCC1C (stereo not drawn)	0.68	2.5	-3%	2.0	-0.8	1.7	0
NC(Cc1c[nH]c2ccccc12)C(=O)NCc1ccco1 (stereo not drawn)	0.64	1.1	u	-0.5	0.7	4.5	0

Exported with values under each structure: entries from further up
Every second line gives: E coli growth, HNF4A DNA FP, Vif TR-FRET, UCH37 DUB inh, Bfl-1 A1 inh, LANA-H2B inh, Beta2AR agonist
CC(NC(=O)c1ccc2c(c1)OCO2)c1ccccc1 (stereo not drawn)
  0.7, 0.4, x, 0.7, 0.5, -0.6, -4
O=C(CCNc1cc(Cl)cc(Cl)c1)c1cccs1
  0.65, 3.6, -4%, -1.3, -0.1, 0.2, -4
NC[C@@H]1O[C@H](O[C@H]2[C@@H](O)[C@H](O[C@@H]3[C@@H](O)[C@H](N)C[C@H](N)[C@H]3O[C@H]3O[C@H](CO)[C@@H](O)[C@H](O)[C@H]3N)O[C@@H]2CO)[C@H](N)[C@@H](O)[C@@H]1O
  x, x, -10%, x, 0.0, -2.6, x

Next section
SMILES	E coli growth	HNF4A DNA FP	Vif TR-FRET	UCH37 DUB inh	Bfl-1 A1 inh	LANA-H2B inh	Beta2AR agonist
O=C1CCC([N+](=O)[O-])C(c2ccc(F)c(Br)c2)N1 (stereo not drawn)	0.7	-1.1	0%	0.2	-0.9	1.8	17
CCOc1ccc(/C=C\C(C)=N\O)cc1	x	0.3	29%	x	-6.0	3.1	0
COc1cccc(NC(=O)CCSc2ccc(C)cc2)c1	0.68	-1.2	4%	5.3	-1.2	0.1	1
COc1ccc(NC(=O)c2cccc(S(=O)(=O)N3CCCCCC3)c2)cc1	0.7	-2.5	x	0.7	0.0	-7.7	12
Cc1cc(-c2ccc(C)c(S(=O)(=O)NCCCN3CCN(c4ccccc4)CC3)c2)on1	0.68	4.1	x	2.3	2.4	2.2	-2
COc1ccc(Cl)cc1NC(=O)CNC(c1ccccc1)c1ccccc1	0.69	0.3	x	1.1	0.5	0.1	3
CCCCNC(=O)C1CCN(C/C(C)=C/c2ccccc2)CC1	0.69	-2.7	3%	1.0	0.5	3.5	-3
NS(=O)(=O)c1cccn1-c1ncc(C(F)(F)F)cc1Cl	0.72	-0.1	1%	0.7	-1.6	1.6	22
COC(=O)c1sccc1NC(=S)N1CCC(C(N)=O)CC1	0.67	-5.1	x	2.2	1.7	-0.9	-12
COc1ccccc1C(=O)Nc1nc2ccc(S(C)(=O)=O)cc2s1	0.69	-1.8	-2%	-15	-1.3	1.6	-10
O=C(OCc1ccccc1)C1CCCN1C(=O)c1cccs1 (stereo not drawn)	0.74	-3.1	10%	2.0	0.1	-5.5	2
CCOC(=O)CSC(CC)C(=O)Nc1nnc(CC)s1 (stereo not drawn)	0.74	0.3	6%	4.2	-0.3	2.6	8
O=C(C1CC1(c1ccccc1)c1ccccc1)N1CCOCC1 (stereo not drawn)	0.69	0.0	3%	-0.2	-1.1	-5.0	-8
CC(=O)N(Cc1ccco1)C1(C(=O)NC2CCCC2)CCCCC1	0.72	-0.4	3%	6.6	0.6	-1.1	3
CCCn1c(SCC(=O)Nc2ccc(F)c(Cl)c2)nc(O)cc1=O	0.66	3.6	x	3.2	-0.5	-2.8	-1
CCCn1c(SCC(=O)Nc2cc(S(=O)(=O)N3CCOCC3)ccc2Cl)n[nH]c1=O	0.67	2.1	-4%	2.6	-0.3	-3.7	-3
Fc1ccc(-c2csc3nnc(SCc4cccnc4)n23)cc1	0.67	3.4	4%	-1.1	0.5	-3.3	-11
CC(C)n1nnnc1SCC(=O)N(C)C1CCS(=O)(=O)C1 (stereo not drawn)	0.69	0.5	-10%	4.1	0.2	0.6	15
CN(c1ccccc1)S(=O)(=O)c1ccc(C(=O)N2CCCC(C(F)(F)F)C2)cc1 (stereo not drawn)	0.68	1.4	x	2.3	-0.5	-3.5	-3
Cc1cc(NC(=O)CN2CCc3ccccc3C2)nc2c1c(=O)oc1ccccc12	0.75	11	-41%	2.5	0.6	-0.8	23
CC(C)c1nnc(NC(=O)CSc2nc3ccccc3s2)s1	0.72	4.3	-3%	2.0	1.6	1.8	-1
COc1cccc(/C=N/NC(=O)c2c(C)nc3ccc(Br)cn23)c1	x	3.8	-2%	x	0.1	-1.0	-3
COc1ccc(CNS(=O)(=O)c2ccc3c(c2)N(C(C)=O)CC(C)S3)cc1 (stereo not drawn)	0.68	1.2	-10%	0.7	-1.5	3.0	-10
Cc1ccc(C(=O)Nc2ccc(N3CCOCC3)cc2)cc1S(=O)(=O)N1CCCCC1	0.68	0.1	-5%	-0.8	0.1	-65	10
COCCNC(=O)c1c(N)n(CCC2=CCCCC2)c2nc3ccccc3nc12	0.7	-4.8	16%	-315	-0.1	-8.6	11

The list continues.
SMILES	E coli growth	HNF4A DNA FP	Vif TR-FRET	UCH37 DUB inh	Bfl-1 A1 inh	LANA-H2B inh	Beta2AR agonist
CCOC(=O)c1c(NC(=O)CSc2nnc(C)c(=O)[nH]2)sc(C)c1-c1ccc(C)cc1	0.66	-1.7	x	2.6	1.9	-3.4	3
CCS(=O)(=O)c1ccc2c(c1)N(S(C)(=O)=O)CC(C(=O)NN)O2 (stereo not drawn)	0.68	-2.1	-7%	3.0	-0.7	-0.8	-5
O=C(NCc1cccnc1)c1cc(-c2cccs2)on1	0.63	5.9	0%	4.1	0.2	1.1	-10
Cc1ccc(N(CC(=O)NN=C2CCN(C)CC2)S(=O)(=O)c2ccc(C)cc2)cc1	0.66	-0.6	-11%	1.3	0.6	-1.4	-4
Cc1ccc(N2C(=O)CC(c3c[nH]c4ccccc34)C2=O)cc1 (stereo not drawn)	0.65	-1.8	x	1.5	0.5	1.0	-6
CCCCN1C(=O)C(C(=O)OCc2ccccc2)CC2=C1CCCC2=O (stereo not drawn)	0.68	-0.1	x	0.7	x	x	-4
CCc1ccc(N2CC(C(=O)NNC(=O)c3ccc(F)cc3)CC2=O)cc1 (stereo not drawn)	0.62	2.4	-5%	3.0	0.5	-1.0	-2
COc1cccc(N=c2oc3ccccc3cc2-c2nc3ccccc3[nH]2)c1	0.77	3.9	1%	1.2	-7.5	-1.8	10
Cc1cc(=O)oc2c3c(cc(OCC(=O)NC4CC4)c12)OC(C)(C)CC3	0.7	0.7	x	i	1.5	-0.6	-20
COCCN=C1NN=C(c2ccc(C)c([N+](=O)[O-])c2)CS1	0.69	1.0	-1%	4.2	-0.9	-5.0	-2
CC1CCC(NC(=O)CC(C)(C)Cc2nc3ccccc3c(=O)[nH]2)CC1 (stereo not drawn)	0.67	-0.9	u	1.2	0.7	9.8	4
CCN(CC)CCN(C)Cc1nc(C(c2ccccc2)c2ccccc2)no1	0.64	-0.7	x	0.6	0.1	-2.0	0
CCc1noc(C)c1C(=O)Nc1ccc(C#N)cc1	0.6	-0.5	2%	0.4	0.4	-2.2	-6
CCNc1ccc(C(=O)O)cc1N	0.71	-5.3	6%	-9.5	0.7	3.2	2
CC(C)(C)c1ccc(-c2nc(C#N)c(N3CCC(C(N)=O)CC3)o2)cc1	0.64	-1.7	-2%	-197	0.4	0.9	22
COc1ccc(C(=O)c2coc3ccc(O)cc23)cc1	0.68	0.8	0%	0.2	-9.5	-0.2	-4
CCOC(=O)Cc1csc(NC(=O)c2cccc(Cl)c2)n1	0.69	5.1	x	8.0	-1.4	1.1	5
O=C(NCCC1=CCCCC1)C1CCN(Cc2cnn(-c3ccccc3)c2-n2cccc2)CC1	0.75	1.4	-3%	0.9	1.5	-1.4	-4
O=C(NCCCl)Nc1ncn[nH]1	x	-2.7	2%	x	x	x	0
CCCCNC(=O)NS(=O)(=O)c1ccc(NS(=O)(=O)c2ccccc2)cc1	0.69	-2.2	-1%	3.8	0.1	21	-2
Cn1cc(P(=O)(N2CCOCC2)N2CCOCC2)cc1P(=S)(N1CCOCC1)N1CCOCC1	0.72	-2.9	x	3.4	0.3	0.4	4
